MT1-MMP reporter: MT1-MMP gene expression reporter suppression – cell-based, luciferase reporter, luminescence (AID 618) | MT1-MMP promoter luciferase reporter cells, luminescence | hit rate 0.62% among 87,000 | calls from a first round at 10 µM; hits with a dose series show EC50 in µM;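 active means over half of the reporter light lost at 10 µM or EC50 under 50 µM; inactive means the rest and hits that failed the dose series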;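 further: actives suppress MT1-MMP promoter-driven transcription so potencies describe inhibitors; HT1080 fibrosarcoma cells; overnight exposure; toxic or luciferase-blocking compounds were not removed from the actives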
WNV NS2B-NS3 inh: inhibitors of West Nile virus NS2B-NS3 protease; z-score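 (tested at a level between 10 and 100 µM)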; hit rate 0.18% among 65,000; P06935; WNV NS2B-NS3 protease, fluorogenic substrate Ex360/Em465; stronger effect = lower value;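 active means z-score at -3 or under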;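 further: score is relative to mean and spread of the compound wells of a plate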
Target sequence (P06935 1371-1501 limits assumed): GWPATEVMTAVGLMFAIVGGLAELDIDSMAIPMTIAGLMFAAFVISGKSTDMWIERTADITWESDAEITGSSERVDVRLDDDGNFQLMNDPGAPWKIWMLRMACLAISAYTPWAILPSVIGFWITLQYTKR
Target sequence (P06935 1502-1679 limits assumed): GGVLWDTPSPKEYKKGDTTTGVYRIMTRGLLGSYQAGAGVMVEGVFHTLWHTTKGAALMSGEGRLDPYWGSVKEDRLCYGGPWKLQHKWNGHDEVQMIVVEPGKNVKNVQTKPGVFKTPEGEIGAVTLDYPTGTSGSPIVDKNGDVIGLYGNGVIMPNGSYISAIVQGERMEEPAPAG
Hsc70: small molecules displacing fluorescent ligand from Hsc70 – biochemical, fluorescence polarization, primary screen (AID 568); 83,000 tested, under 10 active; Hsc70 fluorescence polarization, probe displacement; higher % means a stronger effect; strong numbers were not always called active; displacement, % at 20 µM; hits with a dose series show IC50 in µM;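 active means displacement above 50% without optical interference and an IC50 on retest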;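 further: ATPase domain with a fluorescein-tagged ATP probe; 0% = vehicle and 100% = excess ADP; read after one hour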
* = called active by the depositor; i = inactive; nt = not tested or not shown. Random draw from the library; any-hit rate near 0.77%.

SMILES	MT1-MMP reporter	WNV NS2B-NS3 inh	Hsc70
CC(C)CCNC(=O)C(C)N(C(=O)Cn1nnc(-c2ccc(F)cc2)n1)C1CCCC1 (stereo unspecified)	i	-0.41	-5.2%
O=C(NC1CC1)c1nc2c(nnn2Cc2ccccc2Cl)c(=O)[nH]1	i	nt	1.3%
Cc1nn(-c2ccccc2)c(C)c1C(=O)OCC(=O)NC12CC3CC(CC(C3)C1)C2	i	nt	-0.2%
COC(=O)CN1C(=O)N(c2ccccc2)C(N(O)C(=O)Nc2ccccc2)C1(C)C (stereo unspecified)	i	-0.91	-1.9%
O=C(Nc1ccc(N2CCOCC2)c(Cl)c1)c1ncn[nH]1	i	-0.13	-2.7%
C=CCOC(=O)C(C#N)c1nc2ccccc2nc1N1CCN(c2ccccc2OC)CC1 (stereo unspecified)	i	-0.29	-8.1%
Cc1nc(CCNC(=O)c2cccs2)cs1	i	0.13	16%
CCC(C)n1c(C)nc2c(c1=O)c1nc3ccccc3nc1n2CCC1=CCCCC1 (stereo unspecified)	i	nt	0.5%
COc1ccc(C(O)P(=O)(OC2CCCCC2)c2ccc(N(C)C)cc2)cc1OC (stereo unspecified)	i	-0.18	-5.1%
COc1ccc(CNC(=O)C2CCN(S(=O)(=O)c3cc(OC)ccc3OC)CC2)cc1	i	-0.54	9.7%
CCc1nnc(NC(=O)CSc2nc3c(c(=O)n2-c2ccccc2OC)SCC3)s1	i	-1.4	-5.2%
Cc1ccc(C(=O)NCC(=O)O)cc1S(=O)(=O)N1CCCCC1	i	-0.01	1.8%
Cc1nn(C(C)(C)C)c(OC(=O)c2ccc3c(c2)OCO3)c1S(=O)(=O)c1ccccc1	i	1.3	1.5%
COc1cccc(C(=O)OCCN2CCCCC2)c1	i	nt	5.6%
C/C(NC(=O)c1cccs1)=C1\C(=O)C[C@@H]2[C@H]1C2(C)C	i	-0.14	-3.5%
Cc1nc2c3ccccc3n(CC#N)c(=O)n2n1	i	-0.97	-3.2%
CCn1nnnc1SCC(=O)c1ccc(C)cc1	i	nt	2.7%
CCCCCCNS(=O)(=O)c1nc2nc(C)cc(C)n2n1	i	-0.13	-0.1%
CCn1c(SCC(=O)Nc2ccc(OC)cc2)nnc1-c1ccco1	i	nt	-3.4%
COc1ccc(Br)cc1C(=O)Nc1ccc(N2CCN(S(C)(=O)=O)CC2)cc1	i	0.74	-2.6%

Whole records from above. Order of screens: MT1-MMP reporter | WNV NS2B-NS3 inh | Hsc70
Record of Cc1nn(C(C)(C)C)c(OC(=O)c2ccc3c(c2)OCO3)c1S(=O)(=O)c1ccccc1 = i | 1.3 | 1.5%
Record of O=C(NC1CC1)c1nc2c(nnn2Cc2ccccc2Cl)c(=O)[nH]1 = i | nt | 1.3%

The listing picks up, starting 6 compounds before the break.
SMILES	MT1-MMP reporter	WNV NS2B-NS3 inh	Hsc70
C/C(NC(=O)c1cccs1)=C1\C(=O)C[C@@H]2[C@H]1C2(C)C	i	-0.14	-3.5%
Cc1nc2c3ccccc3n(CC#N)c(=O)n2n1	i	-0.97	-3.2%
CCn1nnnc1SCC(=O)c1ccc(C)cc1	i	nt	2.7%
CCCCCCNS(=O)(=O)c1nc2nc(C)cc(C)n2n1	i	-0.13	-0.1%
CCn1c(SCC(=O)Nc2ccc(OC)cc2)nnc1-c1ccco1	i	nt	-3.4%
COc1ccc(Br)cc1C(=O)Nc1ccc(N2CCN(S(C)(=O)=O)CC2)cc1	i	0.74	-2.6%
Cc1sc(NC(=O)c2cccs2)c(C(N)=O)c1C	i	-0.54	-7.6%
O=C1CCCCCN1Cc1ccccc1	i	nt	-1.8%
CCOc1ccccc1NC(=O)CSc1nnnn1-c1ccc(C(=O)OC)cc1	i	-0.13	2.7%
CCOC(=O)C1CSC(CC(=O)Nc2ccc(OCC)cc2)C(=O)N1 (stereo unspecified)	i	nt	-0.6%
COc1ccccc1-c1nn2c(-c3ccccc3Cl)nnc2s1	i	-0.22	-1.3%
O=C(c1cc(-c2ccco2)on1)N1CCN(c2ccccc2)CC1	i	0.63	-2.3%
Cc1oc(C(C)(C)C)c(CN2CCCC2)c1C(=O)O	i	-1.8	-2.8%
O=C(NC(=S)Nc1cc([N+](=O)[O-])ccc1Cl)c1ccccc1	i	nt	0.6%
CN(C)S(=O)(=O)Nc1ccc2c(c1)OCO2	i	-0.02	-2.3%
COc1ccc(Cn2ccnc2)cc1Br	i	0.28	-1.3%
COc1cc(C(=O)NC2CC3CCCC(C2)N3C2CC2)cc(OC)c1OC (stereo unspecified)	i	1	-3.7%
O=C1CC(=O)N(Cc2cccs2)C(=O)N1	i	1	-8.7%
Cc1cc(=O)cc(C)n1-c1ccc2c(c1)nc(C)n2-c1ccccc1	i	-0.07	5.4%
Cn1c(COc2ccc(Cl)cc2)nnc1SCc1ncc(-c2ccccc2)o1	i	-1.2	4.5%
CCCCOc1ccc(C(C)(O)CCN2CCOCC2)cc1 (stereo unspecified)	i	-1.6	-7.1%
CCOC(=O)c1cnc2ccc(Cl)cc2c1N1CCN(C)CC1	i	-0.32	5.1%
Cn1c(=O)c2c(nc(-n3ccnc3)n2Cc2ccccc2)n(C)c1=O	i	-0.35	0.4%
COC(=O)c1c(N)n(-c2ccc(N3CCOCC3)cc2)c2nc3ccccc3nc12	i	-1	3.4%
COc1ccccc1OCCCn1cc(C#N)c2ccccc21	i	0.2	-6.0%
FC(F)(F)c1cc(-c2cccs2)n[nH]1	i	nt	5.3%

Individual results from the entries so far.
O=C1CCCCCN1Cc1ccccc1 in Hsc70 has -1.8%
COc1ccccc1OCCCn1cc(C#N)c2ccccc21 in WNV NS2B-NS3 inh has 0.2

(list continues)
SMILES	MT1-MMP reporter	WNV NS2B-NS3 inh	Hsc70
O=C(c1c(O)c2ccccc2oc1=O)C1CCC1	i	1.1	2.2%
CC1CCc2nn(CC(=O)N3CCN(C(=O)c4ccco4)CC3)cc2C1 (stereo unspecified)	i	-0.18	6.3%
O=C(CSc1nnnn1-c1ccccc1)CC(=O)Nc1ccc(Cl)cc1	i	-0.83	-4.3%
Cc1cccc2sc(NC(=O)CCNS(=O)(=O)c3cccs3)nc12	i	0.19	1.9%
O=C(CC12CC3CC(CC(C3)C1)C2)NCc1ccncc1	i	nt	0.7%
CC(Sc1ccc(Cl)cc1)C(=O)NCc1cccnc1 (stereo unspecified)	i	nt	1.1%
Cc1cc(C)cc(NC(=O)Cn2ncn3c(cc4ccccc43)c2=O)c1	i	-0.74	-22%
COc1ccc(Nc2cc(C)nc3ncnn23)c(OC)c1	i	0.48	2.9%
CCOC(=O)CNC(=O)Cn1cnc2sc(C)c(S(=O)(=O)N3CCC(C)CC3)c2c1=O	i	nt	-1.6%
O=C(CSc1nnnn1Cc1ccccc1)N1CCN(c2ccccc2)CC1	i	0.16	-3.1%
Cn1c(/C(C#N)=N/O)nc2ccccc21	i	nt	-3.2%
O=C1OC2(CCCCC2)OC(=O)C1=CNc1nc2ccccc2s1	i	nt	1.7%
Cc1cccc(-c2nc3ccccc3c3nncn23)c1	i	-0.92	-1.7%
CCCCc1c(O)c2ccccc2[nH]c1=O	i	-1.3	-4.4%
CC(=O)Nc1ccc(NS(=O)(=O)c2cc(C)sc2C)cc1	i	-0.52	3.8%
Cc1ccc(O)c(-c2cc3ccccc3[nH]2)c1	i	-1.1	1.9%
CC(=O)Nc1ccc(N2C(C(C)=O)=NN(c3ccc(Cl)cc3)C2c2sccc2C)cc1 (stereo unspecified)	i	nt	-7.0%
COc1ccc(-c2[nH]ncc2-c2ccc3c(c2)OCCO3)c(O)c1	i	0.63	1.3%
CCCc1cc(=O)[nH]c(SCc2cccc(C)c2)n1	i	nt	-1.4%
Cc1nnc(SCC(=O)NC(C)c2ccccc2)[nH]c1=O (stereo unspecified)	i	-1.1	0.0%
CCCOc1ccc2oc(=O)c3c(c2c1)CCCN3C(=O)CN(C)Cc1ccccc1	i	-1.2	3.6%
COc1ccc(CCNC(=O)Cc2nn(C)c(=O)c3ccccc23)cc1OC	i	0.49	4.1%
COc1ccccc1N(CC(=O)NCc1ccccn1)S(C)(=O)=O	i	-0.42	-5.3%
COc1ccccc1-c1nnc2n1N=C(C(C)(C)C)CS2	i	-1	-6.0%
O=C(O)C1CC(c2ccccc2F)=NO1 (stereo unspecified)	i	-0.36	-2.6%
CCn1c(SCc2nc3ccccc3s2)nnc1-c1cccs1	i	-0.22	-0.5%
CN1C(=O)CC(N2CCC(c3nc4ccccc4s3)CC2)C1=O (stereo unspecified)	i	0.17	0.4%
COc1ccccc1N1CCN(C(=O)c2nn(-c3ccccc3OC)c(=O)c3ccccc23)CC1	i	0.77	-3.0%
C=CCn1c(Sc2nnc(C)s2)nc2c1c(=O)[nH]c(=O)n2C	i	0.76	5.0%
Cn1c(=O)oc2cc(S(=O)(=O)N3CCOCC3)ccc21	i	-0.58	1.8%
COC(=O)[C@H](CCSC)NC(=O)Nc1ccc(C(C)C)cc1	i	0.17	4.3%
CC(=Nc1ccc(O)cc1)c1sc2ccccc2c1O	i	-0.23	0.2%
Cn1c(SCC(=O)NCc2ccc3c(c2)OCO3)nnc1-c1cccs1	i	-0.21	-4.3%
Cc1ccc(S(=O)(=O)N2CCC(C(=O)NCc3ccccc3Cl)CC2)cc1	i	nt	1.6%
CCOC(=O)c1[nH]c2cc3c(cc2c1NC(=O)CN1CCCCC1C)OCO3 (stereo unspecified)	i	-0.14	-3.6%
CCOc1ccc(NC(=O)CSc2nc3cccnc3n2CCOC)cc1	i	-0.38	3.9%
CC1(C)N([O-])C2=C(c3ccccc3C2=O)[N+](=O)C1(C)C	i	nt	-4.5%
CCOC(=O)Cc1csc(NC(=O)NC2(C(F)(F)F)Oc3ccccc3O2)n1	i	nt	0.7%
CN1CC(=O)NC1=NC(=O)C12CC3CC(CC(C3)C1)C2	i	-0.03	5.6%
Cc1onc(-c2ccccc2Cl)c1C(=O)OCC(=O)c1ccccc1	i	nt	5.2%
COC(=O)c1ccc(Cl)c(NC(=O)CN2CCOCC2)c1	i	-1.2	4.1%
CCCCCOC(=O)CSc1nc2c(c(=O)[nH]c(=O)n2C)n1Cc1ccc(Cl)cc1	i	0.41	-2.7%
CCOC(=O)c1sc(NC(=O)C2CCCO2)c(C(=O)OC)c1C (stereo unspecified)	i	0.25	2.1%
Cc1ccc(S(=O)(=O)N2CCC(C(=O)Nc3nnc(COc4ccccc4)s3)CC2)cc1	i	-0.62	-0.7%
O=C(CSc1nc2c(c(C(F)(F)F)n1)CCc1ccccc1-2)NCc1ccc(F)cc1	i	nt	2.0%
CC(C)(C)c1ccc(S(=O)(=O)NCc2ccc(C(=O)N3CCCC3)cc2)cc1	i	nt	-0.9%
CCOC(=O)CSc1nnc(-c2c[nH]c3ccccc23)n1CC	i	1.1	-1.3%
COc1ccc(C2CC(c3cccs3)=Nc3ccccc3S2)cc1 (stereo unspecified)	i	nt	-7.8%
CN(C)c1ccc(C(=O)Nc2nc3c(s2)CCCC3)cc1	i	-0.12	4.9%
Cc1cccc(NC(=O)c2sc(C)nc2C)c1	i	nt	-2.7%
Oc1ccc(CNc2ccccc2O)cc1	i	nt	-2.6%
Cc1nnc2n1N=CC=C(c1ccccc1)S2	i	-0.85	5.3%
O=C(CC1SC(=Nc2ccccc2)N(CCCCO)C1=O)NCc1ccccc1 (stereo unspecified)	i	-0.6	0.9%
O=C(NC1CCCc2ccccc21)C1CCN(S(=O)(=O)c2cnc[nH]2)CC1 (stereo unspecified)	i	0.55	-2.4%
COC(=O)Cn1c(C)c(C#N)c2ccccc21	i	nt	-0.6%
O=C(O)CCSCC(=O)Nc1c(C(=O)C2CC2)oc2ccccc12	i	-0.79	-2.1%
COc1cc2c(cc1OC)C1(Nc3c-2c(C)nn3-c2ccccc2)C(=O)Nc2ccccc21 (stereo unspecified)	i	nt	-1.6%
O=C(CCC(=O)c1cccs1)OCC(=O)c1ccc(Cl)s1	i	-0.69	-0.6%
Cc1cc(C)n2nc(C(=O)OCC(=O)Nc3ccc4c(c3)OCO4)nc2n1	i	-0.14	4.9%
c1ccc2c3nnc4n(c-3nc2c1)CCCS4	i	-0.1	-0.3%
Later entries:
SMILES	MT1-MMP reporter	WNV NS2B-NS3 inh	Hsc70
O=C(Nc1nccs1)C1CCCN1S(=O)(=O)c1ccc(F)cc1 (stereo unspecified)	i	-0.43	0.1%
COc1ccc(NC(=O)CSc2nnc(-c3ccncc3)n2CC2CCCO2)c(OC)c1 (stereo unspecified)	i	-0.91	-5.8%
COc1ccc(OC)c(NC(=O)c2ccc(CN3CCOCC3)cc2)c1	i	-0.02	2.9%
Cn1ccnc1Sc1nc(Nc2cccc(Cl)c2)nc(N2CCOCC2)n1	i	-0.1	-0.6%
O=C(NC1CC2CCCC(C1)N2S(=O)(=O)c1ccccc1)C1CCCCC1 (stereo unspecified)	i	nt	0.2%
Cc1cc2oc(C(=O)N(Cc3ccccc3)C3CCS(=O)(=O)C3)cc(=O)c2cc1Cl (stereo unspecified)	i	nt	-1.4%
Cc1ccccc1-n1ncc2c(SCC(=O)NCc3cccs3)ncnc21	i	-0.14	3.4%
N#Cc1c(OCC(=O)c2ccccc2)nc2c(c1-c1ccco1)CCc1ccccc1-2	i	nt	-4.5%
CCCCn1c(SC(C)C(=O)c2ccc(OC)cc2)nc2cc(S(N)(=O)=O)ccc21 (stereo unspecified)	i	nt	-1.5%
O=C(COc1ccc(S(=O)(=O)NC2CCCCC2)cc1Cl)NCc1cccnc1	i	0.01	-7.4%
FC(F)(F)c1cccc(CN2CCCCCC2)c1	i	2.4	1.8%
Cc1ccnc(SCC(=O)N2CCC(C(N)=O)CC2)n1	i	-0.96	-5.3%
